Source: PubChem BioAssay
Yeast UUG start: modulators of start codon recognition fidelity in yeast | activity score, % at 18.7 µM | S. cerevisiae UUG-firefly luciferase reporter, luminescence/redox ratio | actives 0.13% (n = 350,000);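 active = replicate mean at a twofold rise or more, about +100% in these data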;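 also: firefly luciferase made from a UUG start codon reports start codon fidelity; reporter light over untreated wells divided by growth signal over untreated wells; some hits fall short of that in this replicate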
Starred values were filed as active, the others as inactive. These rows are one share of the data; count on the stated rates, not on these rows.

SMILES	Yeast UUG start
Cc1noc(C)c1NC(=O)Nc1ccc2c(c1)C(=O)N([C@@H](C)CO)C[C@@H](C)[C@@H](CN(C)C(=O)Nc1ccc(C(F)(F)F)cc1)O2	-2
CO[C@H]1CN(C)C(=O)c2ccc(NS(=O)(=O)c3cn(C)cn3)cc2OC[C@H](C)N(CCC(F)(F)F)C[C@H]1C	-5
O=C(C[C@@H]1CC[C@H]2[C@@H](COC[C@@H](O)CN2S(=O)(=O)c2ccccc2Cl)O1)NCc1ccccc1Cl	15
C[C@H](CO)N1C[C@H](C)[C@H](CN(C)C)Oc2ccc(NC(=O)CCN3CCOCC3)cc2CC1=O	9
Cc1ccccc1S(=O)(=O)N1CC[C@@H]2[C@H]1c1cc(-c3ccccc3)ccc1N[C@@H]2CO	-24
CCNC(=O)[C@@H]1[C@@H](CO)[C@@H]2Cn3c(ccc(C4=CCCC4)c3=O)[C@@H]2N1C(=O)CC1CC1	10
COc1ccc(-c2ccc3c(c2)[C@H]2[C@H](CCN2C(=O)c2cccc(F)c2)[C@H](CO)N3)cc1	-7
CCC(=O)Nc1ccc2c(c1)C(=O)N(C)C[C@@H](OC)[C@@H](C)CN(C(=O)c1cnccn1)[C@@H](C)CO2	17
CC(=O)N1[C@H](CO)[C@H](c2ccccc2)[C@@H]1CN(CC(C)C)C(=O)c1ccccn1	82
O=C(c1cccnc1)N1C[C@H]2[C@@H](c3ccccc31)[C@@H](CO)N2C(=O)C1CCOCC1	-7
CCC(=O)N1[C@H](CO)[C@@H]2c3ccccc3N(C(=O)c3cccc(OC)c3)C[C@@H]21	-16
Cn1cnc(S(=O)(=O)N2CCCCN3[C@H](CO)[C@H](c4ccc(-c5ccccc5)cc4)[C@@H]3C2)c1	3
C[C@H](CO)N1C[C@H](C)[C@H](CN(C)S(=O)(=O)c2ccc(F)cc2)Oc2ccc(NC(=O)Cc3ccccc3)cc2CC1=O	1
C[C@@H]1CN([C@@H](C)CO)C(=O)c2cc(NC(=O)Nc3ccccc3)ccc2O[C@@H]1CN(C)S(C)(=O)=O	10
O=C(C[C@@H]1CC[C@@H]2[C@H](COC[C@@H](O)CN2Cc2ccccc2)O1)NCc1ccccc1Cl	5
COc1ccc(NC(=O)Nc2ccc3c(c2)CC(=O)N([C@@H](C)CO)C[C@H](C)[C@@H](CN(C)Cc2ccncc2)O3)cc1	2
CC(C)NC(=O)N(C)C[C@@H]1Oc2ccc(NS(=O)(=O)c3ccc(F)cc3)cc2C(=O)N([C@@H](C)CO)C[C@@H]1C	6
COCC(=O)N1C[C@H](C)[C@H](OC)CN(C)C(=O)c2ccc(NC(=O)c3cc(C)on3)cc2OC[C@H]1C	-9
O=C(C[C@@H]1CC[C@H]2[C@@H](COC[C@H](O)CN2C(=O)Nc2cccc(Cl)c2)O1)NCC1CCCCC1	-3
O=C(C[C@@H]1CC[C@@H]2[C@H](COC[C@H](O)CN2C(=O)c2ccncc2)O1)NCc1cc(F)cc(F)c1	-12
CO[C@@H]1CN(C)C(=O)c2ccc(NS(=O)(=O)c3cccc(F)c3)cc2OC[C@@H](C)N(Cc2cc(F)ccc2F)C[C@H]1C	0
COc1ccc(S(=O)(=O)N(C)C[C@@H]2Oc3c(NC(=O)c4cnccn4)cccc3C(=O)N([C@@H](C)CO)C[C@@H]2C)cc1	-3
C[C@@H](NC(=O)[C@@H]1[C@@H](CO)[C@@H]2Cn3c(ccc(C4=CCCC4)c3=O)[C@@H]2N1C)c1ccccc1	15
CN1c2ccc(Br)cc2[C@@H]2[C@@H](CCN2S(=O)(=O)c2ccc(F)cc2)[C@@H]1CO	6
Cc1noc(C)c1S(=O)(=O)N(C)C[C@H]1Oc2c(NC(=O)c3cnccn3)cccc2C(=O)N([C@H](C)CO)C[C@H]1C	-6
CS(=O)(=O)N1[C@@H]2c3ccc(C4=CCCCC4)c(=O)n3C[C@H]1[C@H](CO)[C@H]2C(=O)N1CCCCC1	14
COc1cccc(C#Cc2ccc3c(c2)[C@@H]2[C@@H](CCN2C(=O)CC2CC2)[C@@H](CO)N3)c1	-3
Cc1noc(C)c1S(=O)(=O)Nc1cccc2c1O[C@@H](CN(C)Cc1ccc3c(c1)OCO3)[C@@H](C)CN([C@@H](C)CO)C2=O	20
C[C@@H]1CN([C@@H](C)CO)C(=O)c2cc(NC(=O)CCN3CCOCC3)ccc2O[C@H]1CN(C)C(=O)Nc1ccc2c(c1)OCO2	-2
Cc1cccc(-c2ccc([C@H]3[C@H](CO)N4CCCCN(C(=O)c5cccnc5)C[C@@H]34)cc2)c1	-7
O=C(C[C@H]1CC[C@H]2[C@@H](COC[C@H](O)CN2Cc2ccccc2F)O1)N[C@@H]1CCN(Cc2ccccc2)C1	13
CC(C)CC#Cc1ccc([C@@H]2[C@@H](CO)N3CCCCN(S(=O)(=O)c4ccc(F)cc4)C[C@H]23)cc1	13
CC(C)C#Cc1ccc([C@@H]2[C@@H](CO)N3CCCCN(C(=O)c4ccc(F)cc4)C[C@H]23)cc1	8
C[C@H](O)C#Cc1ccc([C@H]2[C@@H](CO)N3CCCCN(C(=O)c4ccc5c(c4)OCO5)C[C@H]23)cc1	0
CN1C(=O)c2cc(NC(=O)C3CCCC3)ccc2OC[C@H]2O[C@@H](CC(=O)O)CC[C@H]21	-15
C[C@@H]1CN([C@@H](C)CO)C(=O)c2cc(NS(=O)(=O)c3ccccc3)ccc2O[C@H]1CN(C)Cc1ccc(Cl)c(Cl)c1	1
CC(C)NC(=O)N1CCCCN2[C@H](C1)[C@H](c1ccc(C#C[C@H](C)O)cc1)[C@@H]2CO	-2
COCCN(C[C@@H]1N[C@@H](CO)[C@@H]1c1ccc(-c2cccnc2)cc1)C(C)=O	-11
CCCNC(=O)N1C[C@@H]2[C@H](c3ccccc31)[C@@H](CO)N2C(=O)Cc1ccccn1	27
CCCC(=O)Nc1ccc2c(c1)C(=O)N(C)C[C@@H](OC)[C@@H](C)CN(Cc1ccc(-c3ccccn3)cc1)[C@@H](C)CO2	-1

3 entries drawn at random from those above, as already listed:
SMILES	Yeast UUG start
C[C@@H]1CN([C@@H](C)CO)C(=O)c2cc(NS(=O)(=O)c3ccccc3)ccc2O[C@H]1CN(C)Cc1ccc(Cl)c(Cl)c1	1
C[C@@H]1CN([C@@H](C)CO)C(=O)c2cc(NC(=O)CCN3CCOCC3)ccc2O[C@H]1CN(C)C(=O)Nc1ccc2c(c1)OCO2	-2
CCCNC(=O)N1C[C@@H]2[C@H](c3ccccc31)[C@@H](CO)N2C(=O)Cc1ccccn1	27

(further entries)
SMILES	Yeast UUG start
CN1CCCCN2[C@H](CO)[C@@H](c3ccc(C#CC4(O)CCCC4)cc3)[C@@H]2C1	10
CN(C)C(=O)c1cccc(-c2ccc3c(c2)[C@@H]2[C@@H](CCN2C(=O)c2cnccn2)[C@H](CO)N3)c1	-1
CO[C@H]1CN(C)C(=O)c2cc(NS(=O)(=O)c3ccc(C)cc3)ccc2OC[C@H](C)N(C)C[C@H]1C	12
O=C(Nc1cc(F)ccc1F)N1CCCCN2[C@H](CO)[C@H](c3ccc(-c4cncnc4)cc3)[C@@H]2C1	-1
C[C@H](NC(=O)C[C@H]1CC[C@H]2[C@@H](COC[C@H](O)CN2C(=O)Nc2cc(Cl)cc(Cl)c2)O1)c1ccccc1	15
C[C@H]1CN([C@@H](C)CO)C(=O)Cc2cc(NS(=O)(=O)c3ccc(F)cc3)ccc2O[C@H]1CN(C)C(=O)NC1CCCCC1	18
C[C@@H]1CN([C@@H](C)CO)C(=O)c2cc(NC(=O)Cc3cn(C)c4ccccc34)ccc2O[C@@H]1CN(C)C(=O)Nc1ccc(F)cc1	6
C[C@H](CO)N1C[C@H](C)[C@@H](CN(C)Cc2ccc(-c3ccccc3)cc2)Oc2c(NC(=O)NC3CCCCC3)cccc2C1=O	-8
COc1ccccc1NC(=O)N1CCCCN2[C@@H](CO)[C@@H](c3ccc(C#Cc4ccccc4)cc3)[C@@H]2C1	-8
CCCNC(=O)Nc1ccc2c(c1)C(=O)N(C)C[C@H](OC)[C@@H](C)CN(Cc1cccnc1)[C@@H](C)CO2	0
CCCC(=O)Nc1ccc2c(c1)C(=O)N(C)C[C@@H](OC)[C@@H](C)CN(C(=O)c1cnccn1)[C@@H](C)CO2	4
CN1c2ccc(Br)cc2[C@@H]2[C@@H](CCN2C(=O)Cc2ccccc2)[C@@H]1CO	16
C/C=C/c1ccc([C@H]2[C@@H](CO)N(C(=O)Cc3cccnc3)[C@@H]2CNC(C)=O)cc1	-3
C[C@@H]1CN([C@@H](C)CO)C(=O)c2cccc(NC(=O)c3ccncc3)c2O[C@H]1CN(C)C(=O)Nc1ccc2c(c1)OCO2	-15
COc1ccc(NC(=O)Nc2ccc3c(c2)CC(=O)N([C@H](C)CO)C[C@@H](C)[C@@H](CN(C)CC2CC2)O3)cc1	-12
COc1ccc(-c2ccc3c(c2)[C@H]2[C@H](CCN2S(=O)(=O)c2ccc(OC)cc2)[C@@H](CO)N3C)cc1	-13
O=C(Cc1ccccc1)N1CC[C@@H]2[C@H](CO)Nc3ccc(C#Cc4cccc(F)c4)cc3[C@@H]21	-16
CC(C)NC(=O)Nc1ccc2c(c1)C(=O)N([C@@H](C)CO)C[C@H](C)[C@H](CN(C)Cc1ccc(C(F)(F)F)cc1)O2	2
CO[C@H]1CN(C)C(=O)c2cc(NS(C)(=O)=O)ccc2OC[C@@H](C)N(C(=O)C2CCCCC2)C[C@H]1C	-4
CCC(=O)N1CCCCN2[C@H](CO)[C@H](c3ccc(C#Cc4ccccc4)cc3)[C@@H]2C1	-12
O=C(Nc1cccc(F)c1)N1CCCCN2[C@@H](CO)[C@H](c3ccc(C#CC4CC4)cc3)[C@@H]2C1	9
CC(C)NC(=O)N1CC[C@H]2[C@@H]1c1cc(C#Cc3ccccc3)ccc1N(C)[C@H]2CO	-8
C[C@H]1CN([C@@H](C)CO)C(=O)c2cccc(NC(=O)C3CCOCC3)c2O[C@H]1CN(C)S(=O)(=O)c1cccs1	-2
C[C@H](CO)N1C[C@H](C)[C@H](CN(C)Cc2ccc(Cl)c(Cl)c2)Oc2ccc(NC(=O)Nc3ccc4c(c3)OCO4)cc2C1=O	-2
CO[C@H]1CN(C)C(=O)c2cc(NC(=O)C3CCC3)ccc2OC[C@H](C)N(Cc2ccc(F)cc2)C[C@@H]1C	13
COCC#Cc1ccc([C@@H]2[C@@H](CO)N3CCCCN(Cc4ccccc4F)C[C@H]23)cc1	-10
CCC(=O)N1CCCCN2[C@H](CO)[C@H](c3ccc(C#CCOC)cc3)[C@@H]2C1	1
O=C(C[C@H]1CC[C@H]2NC[C@@H](O)COC[C@@H]2O1)NCCc1ccccc1	3
O=C(C[C@@H]1CC[C@H]2[C@@H](COC[C@@H](O)CN2C(=O)Nc2ccccc2)O1)NCc1ccccc1F	-9
COc1ccc(NC(=O)Nc2cccc3c2O[C@@H](CN(C)Cc2ccncc2)[C@H](C)CN([C@@H](C)CO)C3=O)cc1	-10
CCC(=O)Nc1ccc2c(c1)C(=O)N(C)C[C@@H](OC)[C@@H](C)CN(C(=O)CC1CC1)[C@H](C)CO2	-12
C[C@H](CO)N1C[C@H](C)[C@@H](CN(C)Cc2ccc(C(=O)Nc3ccccc3N)cc2)Oc2ccc(NC(=O)Cc3cn(C)c4ccccc34)cc2C1=O	-1
C[C@H]1CN([C@@H](C)CO)C(=O)c2cc(NC(=O)CCN3CCOCC3)ccc2O[C@@H]1CN(C)C(=O)Nc1ccccc1	13
CN1CCN(C(=O)[C@H]2[C@H](CO)[C@H]3Cn4c(ccc(C5=CCCC5)c4=O)[C@@H]2N3S(C)(=O)=O)CC1	23
COCC(=O)Nc1ccc2c(c1)C(=O)N(C)C[C@H](OC)[C@@H](C)CN(C(=O)C1CCCC1)[C@H](C)CO2	1
O=C(C1CC1)N1C[C@@H]2[C@H](c3ccccc31)[C@H](CO)N2C(=O)Nc1cccc(F)c1	16
C[C@@H]1CN([C@@H](C)CO)C(=O)c2cccc(NS(C)(=O)=O)c2O[C@@H]1CN(C)S(=O)(=O)c1ccc(Cl)cc1	9
CC(=O)NC[C@H]1[C@H](c2ccccc2)[C@H](CO)N1C(=O)Cc1ccncc1	-9
COCC(=O)Nc1ccc2c(c1)OC[C@@H](C)N(C(=O)Cc1cccnc1)C[C@H](C)[C@@H](OC)CN(C)C2=O	7
CCS(=O)(=O)N1CCCCN2[C@@H](CO)[C@@H](c3ccc(-c4ccccc4C)cc3)[C@@H]2C1	29
C/C=C/c1ccc([C@@H]2[C@@H](CO)N(C(C)=O)[C@H]2CNC(=O)c2ccncc2)cc1	-4
COc1ccc(S(=O)(=O)N2CC[C@@H]3[C@H]2c2cc(Br)ccc2N[C@@H]3CO)cc1	4
Cc1ccccc1-c1ccc([C@@H]2[C@H](CO)N3CCCCN(C(=O)c4cccnc4)C[C@@H]23)cc1	-10
Cc1noc(C)c1NC(=O)Nc1ccc2c(c1)C(=O)N([C@H](C)CO)C[C@@H](C)[C@@H](CN(C)Cc1ccc(Oc3ccccc3)cc1)O2	2

In the list so far, these have an aryl methoxy group.
SMILES	Yeast UUG start
COc1ccc(-c2ccc3c(c2)[C@H]2[C@H](CCN2C(=O)c2cccc(F)c2)[C@H](CO)N3)cc1	-7
CCC(=O)N1[C@H](CO)[C@@H]2c3ccccc3N(C(=O)c3cccc(OC)c3)C[C@@H]21	-16
COc1ccc(NC(=O)Nc2ccc3c(c2)CC(=O)N([C@@H](C)CO)C[C@H](C)[C@@H](CN(C)Cc2ccncc2)O3)cc1	2
COc1ccc(S(=O)(=O)N(C)C[C@@H]2Oc3c(NC(=O)c4cnccn4)cccc3C(=O)N([C@@H](C)CO)C[C@@H]2C)cc1	-3
COc1cccc(C#Cc2ccc3c(c2)[C@@H]2[C@@H](CCN2C(=O)CC2CC2)[C@@H](CO)N3)c1	-3
COc1ccccc1NC(=O)N1CCCCN2[C@@H](CO)[C@@H](c3ccc(C#Cc4ccccc4)cc3)[C@@H]2C1	-8
COc1ccc(NC(=O)Nc2ccc3c(c2)CC(=O)N([C@H](C)CO)C[C@@H](C)[C@@H](CN(C)CC2CC2)O3)cc1	-12
COc1ccc(-c2ccc3c(c2)[C@H]2[C@H](CCN2S(=O)(=O)c2ccc(OC)cc2)[C@@H](CO)N3C)cc1	-13
COc1ccc(NC(=O)Nc2cccc3c2O[C@@H](CN(C)Cc2ccncc2)[C@H](C)CN([C@@H](C)CO)C3=O)cc1	-10
COc1ccc(S(=O)(=O)N2CC[C@@H]3[C@H]2c2cc(Br)ccc2N[C@@H]3CO)cc1	4
